KAT2A inh = qHTS Assay for Inhibitors of GCN5L2; Potency, µM (top dose mostly 58.9 µM), without a hit: top-dose activity change, negative = inhibition, most hits filed as inhibitors; AID 504327, 2011; Histone acetyltransferase KAT2A (Homo sapiens), Q92830; GCN5L2 HAT assay, ThioGlo1 CoA-SH fluorescence; hit rate 0.21% among 390,000
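GCN5L2 (20nM final) in 50mM HEPES, 0.1mM EDTA pH 7.5, 0.01% Tween-20 was preincubated 15 min at room temperature with compound, then given ThioGlo1 (50uM), H3(1-25) peptide (75uM) and acetyl-CoA (70uM); CoA-thiol fluorescence (Ex340/Em540) was read at 0 and 20 min.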
TDP1 cell CPT = qHTS for Inhibitors of human tyrosyl-DNA phosphodiesterase 1 (TDP1): qHTS in cells in presence of CPT | chicken DT40 Tdp1-/-;hTDP1 cells + 20 nM CPT, ATP luminescence, 48 h | hit rate 12% among 420,000 | Potency, µM (titrated, usually from 46.2 µM), without a hit: at the highest dose activity change, negative = growth inhibition, most hits filed as inhibitors; also: nearly all actives have a fitted effect of over 55% in size
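Chicken DT40 Tdp1-/- cells complemented with human TDP1, 400 cells/well, exposed to compounds plus 20 nM camptothecin for at least 48 h at 37 C; viability read as ATP content by CellTiter-Glo luminescence.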
An asterisk follows results filed as active. Calls follow the shape of the dose curve; as a rule, active = well fitted curve in the direction sought with a large enough effect; inconclusive = small, poorly fitted or top-dose-only effect, or another doubt; inactive = no such curve, though single readings can be large; an effect the other way counts as inactive or inconclusive. % is scaled to controls: 0 for no effect and ±100 for the full control effect; potency is read from the fitted curve at half-maximal effect. A portion of the library; most or all hits stand in other tables.

(1) CC12CN(C(=O)c3ccccc3)C3(C#N)CC1CCC23C (stereo unspecified)
(2) CC(O)[C@H]1CNC(=O)C(=O)N1CCc1cccc(F)c1 (stereo partly specified)
(3) COc1ccc(Cl)cc1NC(=O)COC(=O)Cc1cccs1
(4) O=C(Nc1cccc([N+](=O)[O-])c1)C12CC3CC(C1)CC(n1cnc([N+](=O)[O-])n1)(C3)C2
(5) Cc1ccc(OCCn2cc(/C=C(\C#N)C(=O)NCC3CCCO3)c3ccccc32)cc1C (stereo unspecified)
(6) CCOC(=O)c1ccc(N2C(=O)CC(N3CCOCC3)C2=O)cc1 (stereo unspecified)
(7) CCOc1cc(CN2CCCCC2)ccc1OC
(8) CCOc1ccc(CCNC(=O)CCC(=O)N2CCOc3ccccc32)cc1OCC

Screen / compound no. | 1 | 2 | 3 | 4 | 5 | 6 | 7 | 8
KAT2A inh | 1.0% | -0.7% | -0.9% | -9.2% | -12.5% | 2.1% | -0.2% | -3.7%
TDP1 cell CPT | 2.6% | -5.2% | 8.5% | 25.9µM* | 13µM* | -0.6% | -2.5% | -25.3%

Three entries picked at random from the list so far:
(3) COc1ccc(Cl)cc1NC(=O)COC(=O)Cc1cccs1
(8) CCOc1ccc(CCNC(=O)CCC(=O)N2CCOc3ccccc32)cc1OCC
(4) O=C(Nc1cccc([N+](=O)[O-])c1)C12CC3CC(C1)CC(n1cnc([N+](=O)[O-])n1)(C3)C2

Screen / compound no. | 3 | 8 | 4
KAT2A inh | -0.9% | -3.7% | -9.2%
TDP1 cell CPT | 8.5% | -25.3% | 25.9µM*

Results in sequence from the entries so far.
KAT2A inh, entries 1 to 8 → 1.0%, -0.7%, -0.9%, -9.2%, -12.5%, 2.1%, -0.2%, -3.7%

Source: PubChem (National Center for Advancing Translational Sciences (NCATS))
